High-throughput results: PubChem BioAssay, National Center for Advancing Translational Sciences (NCATS)
Rango release inh: inhibitors of RanGTP-induced Rango-importin beta complex dissociation. AID 540253. Biochemical FRET Rango-importin beta, RanGTP-induced dissociation. Potency, µM (titrated, usually from 46.1 µM), inactives show top-dose activity change, negative = inhibition. actives 0.071% (n = 340,000). O95149+P62826; active means falling FRET ratio curve, often poorly fitted, with flat reads before Ran was added; inconclusive means other falling curves, or compound fluorescence or quenching; inactive means flat or rising ratio curve;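 further: potency means the concentration at half of the fitted maximal effect; % of control where 0% means no effect; nearly all actives have a fitted effect of over 45% in size; -100% = wells without RanGTP and RCC1; the record marks most hits as doubtful in a second field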
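Quantitative HTS using a FRET biosensor: 0.1 uM Rango, 0.25 uM importin beta, 0.6 uM Ran, 2 mM GTP, 0.2 uM RCC1 final, PBS with DTT, Tween-20 and BSA. Post-read taken 45 min after Ran addition.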
GLA inh pH 4.5: inhibitors of human alpha-galactosidase A at pH 4.5 | purified enzyme, 4-MU-alpha-Gal fluorescence, pH 4.5 | activity change, negative = inhibition, % at 105 µM | 230,000 tested, under 10 active | P06280; inconclusive = small, poorly fitted or top-dose-only inhibition, or a rising curve; inactive = flat fitted curve, though single readings scatter; no compound was filed as active;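 further: 0% = full activity with enzyme and -100% = basal without enzyme; dose as in the result columns while the protocol names 77 µM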
miR-21 FLuc: raises the signal of a miR-21 reporter | HeLa miR-21 FLuc reporter, luciferase, 48 h | Potency, µM (series often up to 38.3 µM), without a hit: at the highest dose reporter change, positive = more light | 340,000 tested, under 10 active | AID 2288; active = well fitted rising curve with a large enough effect; inconclusive = small, poorly fitted or top-dose-only effect; inactive = no such curve, though single readings can be large or run the other way;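 further: % of control where 0% means no effect; miR-21 action dims this reporter so a rising signal means less miR-21 action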
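Luminescence from a firefly luciferase reporter carrying a miR-21 binding site downstream, stably expressed under a CMV promoter in HeLa cells that make miR-21 endogenously, reports miRNA modulation after 48 h compound exposure up to approximately 40uM final.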
Rango-impB inh: inhibitors of Rango-importin beta complex formation; Q14974; Rango CFP/YFP FRET sensor + importin beta, 45 min; Potency, µM (doses to about 92.2 µM), without a hit: top-dose inhibition of complex formation; actives 0.031% (n = 340,000); active = rising FRET ratio curve, often small or poorly fitted; inconclusive = mostly compound fluorescence or quenching in the first reads; inactive = flat curves in all reads;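 further: potency means the concentration at half of the fitted maximal effect; 0% = DMSO wells and 100% = buffer wells lacking importin beta; nearly all actives have a fitted effect of over 15% in size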
Target sequence (Q14974 whole entry, looked up): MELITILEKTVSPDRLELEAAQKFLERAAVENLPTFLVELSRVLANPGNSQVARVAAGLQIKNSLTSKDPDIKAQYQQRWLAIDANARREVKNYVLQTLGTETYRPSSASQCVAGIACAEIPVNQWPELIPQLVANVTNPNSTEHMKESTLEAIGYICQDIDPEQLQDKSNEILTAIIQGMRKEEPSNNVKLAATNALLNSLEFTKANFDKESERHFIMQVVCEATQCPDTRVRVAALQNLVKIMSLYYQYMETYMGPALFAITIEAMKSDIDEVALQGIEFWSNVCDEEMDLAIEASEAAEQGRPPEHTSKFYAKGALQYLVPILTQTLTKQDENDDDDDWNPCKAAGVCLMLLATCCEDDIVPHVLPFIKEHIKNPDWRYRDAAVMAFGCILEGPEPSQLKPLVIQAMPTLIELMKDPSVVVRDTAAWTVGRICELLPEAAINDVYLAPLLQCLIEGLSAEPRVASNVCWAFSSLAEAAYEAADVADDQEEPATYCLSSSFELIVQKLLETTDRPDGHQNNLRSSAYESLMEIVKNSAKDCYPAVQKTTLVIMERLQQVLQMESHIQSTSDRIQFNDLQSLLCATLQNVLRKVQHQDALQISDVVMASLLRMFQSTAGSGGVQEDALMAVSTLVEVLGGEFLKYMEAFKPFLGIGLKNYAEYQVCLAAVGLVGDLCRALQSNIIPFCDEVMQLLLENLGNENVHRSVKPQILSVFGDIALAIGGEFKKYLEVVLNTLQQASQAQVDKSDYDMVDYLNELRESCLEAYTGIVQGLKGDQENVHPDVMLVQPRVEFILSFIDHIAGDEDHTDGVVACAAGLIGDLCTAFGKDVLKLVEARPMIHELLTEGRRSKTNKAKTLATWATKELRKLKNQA
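FRET biosensor (snurportin 1 IBB flanked by EYFP and cerulean), 50 nM, with compound 5 min, then 0.125 microM importin beta in PBS, 1 mM DTT, 0.02% Tween-20, 0.1% BSA. CFP/YFP ratio read after 45 min at room temperature; pre-read flags interference.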
An asterisk follows results filed as active; ? = inconclusive; / = no result given; & = joins results of further samples. An excerpt; the hit share may differ from the screen's.

SMILES	Rango release inh	GLA inh pH 4.5	miR-21 FLuc	Rango-impB inh
CC(=O)C1C(c2ccc([N+](=O)[O-])cc2)C2C(C)=NN=C2CC1(C)O (stereo not given)	35%	0	6%	-2.5%
COc1ccc(CCN2CC(C(=O)NCCN3CCNC3=O)CCC2=O)cc1 (stereo not given)	4%	/	-1%	0.0%
O=C(Nc1ccncc1)c1ccccc1Cl	-8%	/	-8%	1.4%
Cc1cnc(C(=O)OCC(=O)N2CCN(C(=O)c3ccco3)CC2)cn1	16%	-7	0%	-3.0%
CC(=O)Nc1ccc(S(=O)(=O)NC(C)C(=O)NCC(c2ccco2)N2CCCCC2)cc1 (stereo not given)	-1%	/	/	1.6%
O=C(NCc1ccccc1)C(c1ccccc1)N(C(=O)c1csnn1)c1ccccc1 (stereo not given)	-2%	/	2%	0.5%
Cn1c(=O)c2cn3ncccc3c2n(C)c1=O	/	-28	-1%	/
COC(=O)C[C@H]1C=C[C@@H](C(C(=O)OC)C(=O)OC)CN1C(C)=O	3%	/	/	4.5%
CCCC(=O)Nc1nnc(C2CCCO2)s1 (stereo not given)	-2%	2	-1%	-0.3%
COc1cnc(-c2ccccn2)[nH]c1=O	0%	-2	15%	8.7%
CCCNC(=O)c1noc2c1CCc1cc(OC)ccc1-2	30%	-4	-48%	1.9%
Cc1nc(SCC(=O)NC2CCS(=O)(=O)C2)c2c3c(sc2n1)CCC3 (stereo not given)	0%	/	/	-0.1%
Cn1cc2cccc([N+](=O)[O-])c2n1	0%	7	-1%	-0.6%
Cc1nc2ccccc2c(=O)n1/N=C/c1ccc(C(C)C)cc1	2%	/	-28%	0.2%
CC(C)(C)NC(=O)C(c1ccccn1)N(C(=O)C1CSC(=O)C1)c1cccc(F)c1 (stereo not given)	0%	-6	-3%	-1.7%
Nc1ccc(S(=O)(=O)Nc2nccs2)cc1N=Nc1ccccc1[N+](=O)[O-]	-9%	/	/	-0.8%
Cc1ccc(O)c(Nc2ncnc3ccc([N+](=O)[O-])cc23)c1	7%	/	9%	?
CCN(CC)S(=O)(=O)c1ccc(-c2ccc(S(=O)(=O)N(CC)CC)cc2)cc1	14%	0	2%	-6.6%
O=C(NCC(c1ccco1)N1CCN(c2ccccc2F)CC1)C(=O)NC1CCCCC1 (stereo not given)	4%	/	/	1.7%
O=C1C2C3C=CC(C3)C2C(=O)N1Cc1ccc(CN2C(=O)C3C4C=CC(C4)C3C2=O)cc1 (stereo not given)	-6%	-6	-4%	-0.6%
Cc1ccc(C(=O)CSc2nc(N)cc(=O)[nH]2)cc1	1%	-5	-11%	-3.8%
Cc1ccc(CNC(=O)CSc2nnc3c(n2)[nH]c2ccc(F)cc23)cc1	-6%	/	-1%	1.1%
COc1cc(C(CCN2CCOCC2)c2c(OC)cc(OC)c3c(C)cc(=O)oc23)cc(OC)c1OC (stereo not given)	-5%	-4	-6%	-5.0%
COc1ccccc1/C=C(\NC(=O)c1ccc(OC)c(OC)c1)C(=O)Nc1ccc([N+](=O)[O-])cc1	0%	-5	-10%	-3.0%
COc1ccc(NC(=O)c2cc3ccccc3o2)cc1	9%	0	-38%	-0.8%

5 entries from above, set out differently.
SMILES,Rango release inh,GLA inh pH 4.5,miR-21 FLuc,Rango-impB inh
Cn1c(=O)c2cn3ncccc3c2n(C)c1=O,/,-28,-1%,/
COC(=O)C[C@H]1C=C[C@@H](C(C(=O)OC)C(=O)OC)CN1C(C)=O,3%,/,/,4.5%
CCCC(=O)Nc1nnc(C2CCCO2)s1 (stereo not given),-2%,2,-1%,-0.3%
COc1cnc(-c2ccccn2)[nH]c1=O,0%,-2,15%,8.7%
CCCNC(=O)c1noc2c1CCc1cc(OC)ccc1-2,30%,-4,-48%,1.9%

Next structures.
SMILES	Rango release inh	GLA inh pH 4.5	miR-21 FLuc	Rango-impB inh
NCCSc1c(-c2ccc(F)cc2)[nH]c2ccccc12	24%	-5	4%	4.6%
CCCCCn1cnnc1SCC(=O)c1ccc2c(c1)OCO2	-10%	/	/	1.0%
O=C(COC(=O)/C=C/c1cccc(C(F)(F)F)c1)NC(=O)NC1CCCC1	-9%	/	/	0.0%
CC1Cc2ccccc2N1c1nc(C2CC2)nc2c1nnn2Cc1ccccc1 (stereo not given)	-21%	8	-14%	?
Cc1cccc(OCCCC(=O)Nc2nccs2)c1C	15%	3	6%	4.7%
CC1CCCCC1NC(=O)CN(C)S(=O)(=O)c1cccc2nsnc12 (stereo not given)	-9%	6	-5%	0.9%
Cc1cccc(C(=O)NCC(=O)N2CCOCC2)c1	0%	/	-28%	2.3%
O=C(CNS(=O)(=O)c1ccccc1)N/N=C/c1ccncc1	27%	/	/	0.1%
Cc1c(Cl)cccc1NC(=S)N1CCC(N(C)CC2CCCO2)CC1 (stereo not given)	0%	-11	4%	0.9%
O=C(Cc1ccccc1)Nc1ccc2oc(-c3cccnc3)nc2c1	0%	-6	-15%	0.1%
COc1ccc(NC(=O)N(C)C[C@H]2Oc3c(NC(=O)Cc4ccccc4)cccc3C(=O)N([C@H](C)CO)C[C@@H]2C)cc1	15%	/	/	7.6%
O=C(Nc1cccc(S(=O)(=O)NC2=NCCC2)c1)c1cc(F)c(F)c(F)c1F	-3%	/	/	-0.9%
O=C(Nc1ccccc1C(=O)NC(Cc1c[nH]c2ccccc12)C(=O)O)c1ccccc1 (stereo not given)	-5%	-9	5%	-1.3%
CCOC(=O)C1CCCN(C(=O)c2cc3nc(-c4ccc5c(c4)OCO5)cc(C(F)(F)F)n3n2)C1 (stereo not given)	?	-2	-6%	-5.8%
Cc1ccn(CC(C)C(=O)O)n1 (stereo not given)	13%	6	-1%	0.5%
CC(C)(C)c1ccc(-c2nc3n(c(=O)c2C#N)CCS3)cc1	16%	-4	-13%	-3.6%
Brc1ccc2nc3c(n2c1)CCCC3	4%	2	-20%	-0.1%
NC(=O)NCc1ccccc1	21%	1&4	-3%	-4.1%
Clc1cccc(NC2=NCCC2)c1	5%	-14	2%	-3.0%
O=C1c2ccccc2C(=O)N1c1nc2nccc(-c3ccccc3)n2n1	-13%	-2	-2%	-0.1%
Cc1cccc(NC(=O)NCC(F)(F)F)n1	21%	10	0%	-0.9%
COc1ccc(C(=O)Nc2cccc(S(=O)(=O)N3CCCC3)c2)cc1S(=O)(=O)N1CCOCC1	-3%	/	/	4.9%
CN1CCN(c2ccc([N+](=O)[O-])cc2NC(=O)c2ccco2)CC1	4%	/	0%	-2.8%
COCCN(C(=O)c1ccco1)c1nnc(-c2ccc(OC)cc2)s1	-11%	6	-29%	0.0%
O=C(O)CCN1CC2([N+](=O)[O-])C=CC(=O)C([N+](=O)[O-])(C1)C2CC(=O)c1ccccc1 (stereo not given)	-9%	2	5%	1.8%
Remaining list, next part.
SMILES	Rango release inh	GLA inh pH 4.5	miR-21 FLuc	Rango-impB inh
Cc1ccc(-c2cn3c(n2)CCCC3)cc1	3%	6	-11%	-4.8%
CN(C)N1C(N)=C(C#N)C(c2ccccc2)C2=C1CCCC2=O (stereo not given)	5%	-8	4%	2.3%
CSCCC(NC(=O)c1ccco1)C(=O)N(C)CC(=O)Nc1c(Cl)cccc1Cl (stereo not given)	-1%	/	/	5.3%
CCOP(=O)(c1ccccc1Cl)C1(O)CCCCC1 (stereo not given)	16%	-8	-4%	-1.7%
CC(=O)N1CCc2cc(S(=O)(=O)NCc3ccc(C)cc3)ccc21	-1%	/	-1%	-1.4%
CC1=CCC2C(=O)N(c3ccc(C(=O)N4CCCCCC4)cc3)C(=O)C2C1 (stereo not given)	-11%	4	-6%	1.1%
COC(=O)c1sc(-c2ccc(C(C)(C)C)cc2)cc1NC(=O)/C=C/C(=O)O	-5%	-1	25%	0.2%
COc1ccc(CCNC(=O)CS(=O)(=O)c2cn(CC(=O)N3CCOCC3)c3ccccc23)cc1OC	-3%	-5	-4%	-0.6%
COc1ccc2cc(C(=O)C3CCCN(C(=O)c4cc5nc(C)cc(C)n5n4)C3)ccc2c1 (stereo not given)	-6%	8	-26%	-4.0%
O=C(NCCc1cn2ccccc2n1)c1ccccc1F	0%	-1	-8%	-0.6%
Cc1ccc(OCC(=O)N(Cc2ccco2)c2c(N)n(Cc3ccccc3)c(=O)[nH]c2=O)cc1C	-24%	/	/	-0.4%
Cn1c(=O)c(-c2cc(Br)ccc2N)nc2ccccc21	-14%	-8	-28%	-1.8%
Cc1c(NS(=O)(=O)c2ccc3c(c2)OCCO3)cccc1-c1nc2cccnc2s1	8%	-5	7%	1.6%
O=C(NCCOC(=O)c1ccncc1)c1ccccc1	0%	-1	-2%	3.2%
COc1ccc(NC(=O)CN(C)Cc2cccs2)cc1Cl	-2%	/	-39%	0.1%
CCc1nc(SCC(=O)N2CCOCC2)c2c(=O)n(C)c(=O)n(C)c2n1	0%	10	5%	1.8%
Cc1ccc(S(=O)(=O)N2CCc3ccccc3C2)cc1C	-19%	/	-1%	?
COc1ccc(CC(=O)N2CCN(c3cccc(Cl)c3)CC2)cc1OC	-16%	/	1%	-5.0%
O=C1c2ccccc2C(O)N1c1ccc(Cl)cc1 (stereo not given)	-4%	14	-36%	4.3%
CC(=O)[C@H]1[C@@H]2C(=O)N(c3cccc(Cl)c3)C(=O)[C@@H]2[C@H]2c3ccccc3C=CN21	?	-1	-14%	?
Cc1ccc(OCCNC(=O)c2cncc(Br)c2)cc1C	18%	-4	7%	5.5%
CC(C(=O)O)C1SC(=O)NC1=O (stereo not given)	0%	2	2%	-0.4%
Cc1ccccc1OCCOc1ccc([N+](=O)[O-])cc1/C=N/n1cnnc1	-14%	4	-7%	0.7%
C=CC1C(N2CCOCC2)C(C)(C)S1(=O)=O (stereo not given)	2%	3	1%	-4.4%
CS/C(=C\[N+](=O)[O-])Nc1ccc(OC(F)(F)F)cc1	9%	-4	22%	4.2%
Other structures follow:
SMILES	Rango release inh	GLA inh pH 4.5	miR-21 FLuc	Rango-impB inh
COCCOC(=O)C1=C(C)Nc2nc(C)nn2C1c1ccccc1 (stereo not given)	-10%	7	-6%	0.7%
N#CC1=C(N)N(c2ccc(Br)cc2)C2=C(C(=O)CCC2)C1c1cccnc1 (stereo not given)	?	1	0%	?
Cc1nn(-c2ccccc2)c(C)c1/C=N/NC(=O)c1cc(C2CC2)[nH]n1	-10%	3	-35%	0.6%
O[C@@H](CNC[C@H](O)c1ccccc1)c1ccccc1	3%	-6	-8%	0.0%
O=C(Cc1ccccc1C(=O)O)Nc1cccc2ccccc12	5%	/	-6%	-0.5%
CCCC1(C(=O)OC)NC(c2cc(OC)c(OC)c(OC)c2)C2C(=O)N(CC)C(=O)C21 (stereo not given)	-2%	-6	-5%	?
CC1=NN(c2ccccc2)C(=O)C1N=Nc1ccccc1 (stereo not given)	41%	1	-51%	3.4%
O=C(Cn1c(COc2ccccc2)nc2ccccc21)Nc1cc(Cl)ccc1Cl	7%	7	2%	3.6%
O=[N+]([O-])c1ccc(C=NNC(=S)Nc2ccc(F)cc2)cc1	1%	/	/	?
O=C(Nc1ccccc1)c1nn(-c2cccc(C(F)(F)F)c2)ccc1=O	12%	1	-28%	-2.3%
CN(Cc1ccccc1)C(NC(=O)c1ccccc1)C(Cl)(Cl)Cl (stereo not given)	-13%	-4	-6%	-6.2%
O=[N+]([O-])c1ccc(/C=N/Nc2nc(N3CCOCC3)nc(N3CCOCC3)n2)cc1	/	-5	-4%	/
O=C(NCc1ccc(F)cc1)c1ccc(Cl)c(NC2=NC3CS(=O)(=O)CC3S2)c1 (stereo not given)	7%	/	-1%	-0.5%
O=C(CC1OC(=O)c2ccccc21)NNC(=O)c1ccc(F)cc1 (stereo not given)	8%	/	/	5.0%
C=CCNC(=O)c1cc(-c2cccnc2)nc2ccccc12	-3%	/	8%	-0.7%

Quoted at random: three compounds from above, in no set order.
SMILES	Rango release inh	GLA inh pH 4.5	miR-21 FLuc	Rango-impB inh
C=CCNC(=O)c1cc(-c2cccnc2)nc2ccccc12	-3%	/	8%	-0.7%
O=C(Nc1ccccc1)c1nn(-c2cccc(C(F)(F)F)c2)ccc1=O	12%	1	-28%	-2.3%
O=[N+]([O-])c1ccc(/C=N/Nc2nc(N3CCOCC3)nc(N3CCOCC3)n2)cc1	/	-5	-4%	/
